rRNA inh HTS – selective bacterial rRNA inhibition in E. coli; E. coli WT GFP vs humanized-ribosome RFP mutants, fluorescence, 24 h; stronger effect = lower value; DMSO median 0, no signal -100; actives 1.6% (n = 350,000); GFP signal change (wild-type ribosome), % (concentration not given with the values); AID 720706;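 active = significant combined selectivity score with lowered wild-type GFP, culture density cut under 30%, mutant RFP and density less affected; inactive = any of these conditions unmet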; note: one replicate is shown; some compounds called inactive have numbers as strong as hits
AF4-AF9 inh – blocks AF4 peptide binding to human AF9 | actives 0.47% (n = 350,000) | AlphaScreen, biotin-AF4 peptide binding to FLAG-AF9 | P42568 | inhibition, % at 10 µM;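 active = every replicate reaching a set inhibition limit, whatever the replicate mean, cut at about 25% in these data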;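 note: 0% = plate neutral control median and 100% = total signal loss; the record names both 10 and 1 µM as test concentration; the first replicate is given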
Target sequence (P42568 whole entry, looked up): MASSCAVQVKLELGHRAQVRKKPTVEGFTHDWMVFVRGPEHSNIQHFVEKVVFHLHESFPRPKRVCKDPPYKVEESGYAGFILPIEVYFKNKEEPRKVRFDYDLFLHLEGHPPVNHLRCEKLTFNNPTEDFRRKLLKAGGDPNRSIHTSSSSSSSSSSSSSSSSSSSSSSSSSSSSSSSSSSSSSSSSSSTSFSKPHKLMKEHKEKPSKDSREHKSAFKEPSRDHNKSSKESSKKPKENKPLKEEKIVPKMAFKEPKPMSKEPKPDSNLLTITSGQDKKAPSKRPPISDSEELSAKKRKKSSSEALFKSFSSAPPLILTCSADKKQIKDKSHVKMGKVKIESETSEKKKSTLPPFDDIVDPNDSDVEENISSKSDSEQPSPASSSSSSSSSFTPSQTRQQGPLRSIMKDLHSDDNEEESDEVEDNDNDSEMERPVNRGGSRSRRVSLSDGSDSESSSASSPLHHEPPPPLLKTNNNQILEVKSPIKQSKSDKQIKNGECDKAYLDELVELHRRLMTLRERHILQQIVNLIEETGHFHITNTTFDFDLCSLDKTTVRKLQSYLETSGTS
rRNA inh HTS OD600 – recorded beside rRNA inh HTS, whose call it bears; OD600 change, %; measured here: OD600 growth;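 optical density of the mix in the first replicate; 0 = DMSO median and -100 = no signal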
rRNA inh HTS RFP – also measured in rRNA inh HTS; calls as there; RFP signal change, %; measured here: RFP humanized mutant strains;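 first replicate; 0 = DMSO median and -100 = no signal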
* = called active by the depositor; i = inactive; . = not tested or not shown. Only part of the results is shown; count on the stated rates, not on these rows.

SMILES	rRNA inh HTS	rRNA inh HTS OD600	rRNA inh HTS RFP	AF4-AF9 inh
COc1ccc(CN(C)C[C@H]2OCCCC[C@@H](C)Oc3ccc(NC(=O)NC4CCCCC4)cc3C(=O)N([C@H](C)CO)C[C@@H]2C)cc1	4	5	-1.9	1.2
COc1ccc(C#Cc2ccc([C@@H]3[C@@H](CO)N4CCCCN(C)C[C@@H]34)cc2)cc1	-2	6	9.9	5.3
COc1ccc(NC(=O)N(C)C[C@@H]2OCCCC[C@@H](C)Oc3ccc(NC(=O)Nc4ccc5c(c4)OCO5)cc3C(=O)N([C@H](C)CO)C[C@H]2C)cc1	-1	-4	-2.4	5.6
O=C(C[C@@H]1CC[C@@H]2[C@H](COC[C@H](O)CN2C(=O)C2CC2)O1)NCc1ccncc1	6	12	-3.8	-0.6
CC(C)(C)[S@@](=O)N1Cc2cc(C(=O)O)nc(-c3cccc(-c4cccc(F)c4)c3)c2[C@H]1CCO	5	5	0.2	-1.3
COc1cccc(S(=O)(=O)N(C)C[C@H]2Oc3cc(C4=CCCC4)ccc3S(=O)(=O)N([C@@H](C)CO)C[C@@H]2C)c1	1	-2	3.5	0.7
CC(C)NC(=O)Nc1ccc2c(c1)C(=O)N([C@@H](C)CO)C[C@@H](C)[C@@H](CN(C)C)OCCCC[C@@H](C)O2	1	9	-2.7	-16
C[C@H]1CN([C@@H](C)CO)C(=O)Cc2cc(NS(=O)(=O)c3ccc(F)cc3)ccc2O[C@@H]1CN(C)S(=O)(=O)c1ccccc1	-3	-1	1.0	-1.8
CO[C@H]1CN(C)C(=O)c2ccc(NC(=O)Nc3cccc(Cl)c3)cc2OC[C@@H](C)NC[C@@H]1C	-4	-5	2.2	9.5
Cc1c(C(=O)NCc2ccccc2C(F)(F)F)sc(=O)n1Cc1ccc2ccccc2c1	2	-2	-5.5	0.6
CCCC#Cc1ccc([C@H]2[C@@H](CO)N3CCCCN(S(=O)(=O)c4ccccc4C)C[C@@H]23)cc1	1	5	-0.8	-3.5
CC(=O)N(C)C[C@H]1Oc2ncc(-c3cccc(C#N)c3)cc2C(=O)N([C@@H](C)CO)C[C@@H]1C	3	3	-2.1	-3.3
COc1ccc(NC(=O)Nc2ccc3c(c2)CC(=O)N([C@H](C)CO)C[C@@H](C)[C@@H](CN(C)C(=O)Nc2ccc4c(c2)OCO4)O3)cc1	3	-4	-2.0	-0.5
COc1ccc(NC(=O)Nc2ccc3c(c2)C(=O)N([C@H](C)CO)C[C@H](C)[C@H](CN(C)S(C)(=O)=O)OCCCC[C@H](C)O3)cc1	0	-1	-1.0	-4.8
COc1cccc(S(=O)(=O)Nc2ccc3c(c2)C(=O)N(C)[C@H]2CC[C@H](CC(=O)Nc4ccc(C(C)C)cc4)O[C@@H]2CO3)c1	-9	-13	1.6	0.7
Cc1ccc(S(=O)(=O)N(C)C[C@H]2Oc3ccc(N(C)C)cc3CC(=O)N([C@H](C)CO)C[C@H]2C)cc1	-3	-6	1.6	-1.2
COCC(=O)N1[C@H](C#N)[C@@H](c2ccc(-c3cccc(F)c3)cc2)[C@@H]1CO	-1	3	-5.5	-2.6
C[C@H](CO)N1C[C@H](C)[C@@H](CN(C)C(=O)c2ccccn2)Oc2ncc(C3=CCCC3)cc2C1=O	2	5	0.7	-2.4
O=C(c1ccc(F)cc1)N1CC(=O)N2[C@H](CO)[C@@H](c3ccc(C#CC4CCCC4)cc3)[C@@H]2C1	6	10	-0.9	-2.3
COc1ccccc1-c1ccc([C@H]2[C@@H](C#N)N(C(=O)CN(C)C)[C@H]2CO)cc1	-2	17	-2.9	-0.3
O=C(NC1CCC1)[C@@H]1[C@@H](CO)[C@@H]2Cn3c(ccc(-c4ccccc4)c3=O)[C@H]1N2Cc1cocn1	-2	0	-5.1	-3.8
CO[C@H]1CN(C)C(=O)c2cc(NC(=O)C3CCC3)ccc2OC[C@H](C)N(C(=O)NC(C)C)C[C@H]1C	3	0	-1.8	-1.1
O=C(c1cccc(F)c1)N1CCCCN2[C@H](CO)[C@H](c3ccc(-c4cccnc4)cc3)[C@H]2C1	-2	7	1.1	-1.8
COc1ccc(CN(C)C[C@@H]2OCCCC[C@H](C)Oc3ccc(NS(=O)(=O)c4cn(C)cn4)cc3C(=O)N([C@H](C)CO)C[C@H]2C)cc1	4	9	0.4	-4.9
Cc1noc(C)c1NC(=O)N[C@H]1C=C[C@H](CC(=O)NCCCN(C)C)O[C@H]1CO	2	-3	-1.3	0.3
CN1C(=O)c2cc(NC(=O)c3ccc(F)c(F)c3)ccc2OC[C@H]2O[C@@H](CC(=O)N3CCOCC3)CC[C@H]21	-2	2	-2.1	0.3
CC(C)CC#Cc1ccc2c(c1)O[C@H](CN(C)C(=O)C1CCCCC1)[C@@H](C)CN([C@H](C)CO)S2(=O)=O	0	-5	5.5	0.1
CCN(C[C@@H]1[C@@H](c2ccccc2)[C@H](CO)N1C(=O)C1CC1)C(=O)NC1CCCC1	-2	-2	1.0	-2.9
Cc1cccc(S(=O)(=O)N2C[C@@H](O)COC[C@@H]3O[C@H](CC(=O)Nc4ccccc4)CC[C@H]32)c1	i	.	.	-1.0
COc1ccc(NC(=O)N(C)C[C@H]2Oc3ccc(NC(=O)Nc4ccc(C(F)(F)F)cc4)cc3CC(=O)N([C@H](C)CO)C[C@@H]2C)cc1	-3	-5	3.9	5.8

Reformatted: results already given
Molecule | rRNA inh HTS | rRNA inh HTS OD600 | rRNA inh HTS RFP | AF4-AF9 inh
CO[C@H]1CN(C)C(=O)c2ccc(NC(=O)Nc3cccc(Cl)c3)cc2OC[C@@H](C)NC[C@@H]1C | -4 | -5 | 2.2 | 9.5
Cc1c(C(=O)NCc2ccccc2C(F)(F)F)sc(=O)n1Cc1ccc2ccccc2c1 | 2 | -2 | -5.5 | 0.6
CCCC#Cc1ccc([C@H]2[C@@H](CO)N3CCCCN(S(=O)(=O)c4ccccc4C)C[C@@H]23)cc1 | 1 | 5 | -0.8 | -3.5
CC(=O)N(C)C[C@H]1Oc2ncc(-c3cccc(C#N)c3)cc2C(=O)N([C@@H](C)CO)C[C@@H]1C | 3 | 3 | -2.1 | -3.3
COc1ccc(NC(=O)Nc2ccc3c(c2)CC(=O)N([C@H](C)CO)C[C@@H](C)[C@@H](CN(C)C(=O)Nc2ccc4c(c2)OCO4)O3)cc1 | 3 | -4 | -2.0 | -0.5
COc1ccc(NC(=O)Nc2ccc3c(c2)C(=O)N([C@H](C)CO)C[C@H](C)[C@H](CN(C)S(C)(=O)=O)OCCCC[C@H](C)O3)cc1 | 0 | -1 | -1.0 | -4.8
COc1cccc(S(=O)(=O)Nc2ccc3c(c2)C(=O)N(C)[C@H]2CC[C@H](CC(=O)Nc4ccc(C(C)C)cc4)O[C@@H]2CO3)c1 | -9 | -13 | 1.6 | 0.7
Cc1ccc(S(=O)(=O)N(C)C[C@H]2Oc3ccc(N(C)C)cc3CC(=O)N([C@H](C)CO)C[C@H]2C)cc1 | -3 | -6 | 1.6 | -1.2
COCC(=O)N1[C@H](C#N)[C@@H](c2ccc(-c3cccc(F)c3)cc2)[C@@H]1CO | -1 | 3 | -5.5 | -2.6
C[C@H](CO)N1C[C@H](C)[C@@H](CN(C)C(=O)c2ccccn2)Oc2ncc(C3=CCCC3)cc2C1=O | 2 | 5 | 0.7 | -2.4

Additional compounds
SMILES	rRNA inh HTS	rRNA inh HTS OD600	rRNA inh HTS RFP	AF4-AF9 inh
Cc1ccccc1-c1cnc2c(c1)C(=O)N([C@@H](C)CO)C[C@H](C)[C@H](CN(C)C(=O)c1cccnc1)O2	-3	-9	-1.6	0.0
COc1ccc(S(=O)(=O)Nc2ccc3c(c2)C(=O)N([C@@H](C)CO)C[C@@H](C)[C@@H](CN(C)Cc2ccc(C(=O)O)cc2)O3)cc1	4	5	-1.4	-10
O=C(C[C@@H]1C=C[C@@H](NC(=O)Nc2ccc3c(c2)OCO3)[C@@H](CO)O1)NCCCN1CCOCC1	3	-2	-1.4	-0.5
COc1ccc(S(=O)(=O)Nc2ccc3c(c2)C(=O)N([C@@H](C)CO)C[C@H](C)[C@@H](CN(C)C(=O)Cc2ccccc2)OCCCC[C@H](C)O3)cc1	-2	-8	2.9	0.6
O=S(=O)(N[C@@H]1CC[C@H](CCn2cc(-c3ccccn3)nn2)O[C@@H]1CO)c1cccc(F)c1	-3	-2	-0.4	0.9
COc1ccc(NC(=O)N(C)C[C@@H]2Oc3ncc(C#Cc4ccc(C(F)(F)F)cc4)cc3C(=O)N([C@H](C)CO)C[C@@H]2C)cc1	3	8	3.3	3.6
O=C(Nc1cc(F)ccc1F)N1CCCCN2[C@H](C1)[C@H](c1ccc(-c3ccccc3)cc1)[C@@H]2CO	-5	-43	13	-3.8
O=c1c(-c2cccnc2)nc2ccccc2n1C(CCc1ccccc1)c1nc2ccccc2[nH]1 (configuration not stated)	1	8	2.1	2.9
COc1cccc(-c2ccc3c(c2)[C@H]2[C@H](CCN2S(=O)(=O)c2cn(C)cn2)[C@H](CO)N3)c1	-8	7	-2.6	-3.5
COc1ccc(C(NC(=O)C2CCN(CCCc3ccccc3)CC2)c2cccs2)cc1 (configuration not stated)	5	14	-0.2	-2.8
CC1(C(=O)N2CCCCC2)CCN1C(=O)Cc1ccc(-c2ccccc2)cc1 (configuration not stated)	-13	-10	0.7	-2.8
CC(C)c1ccc(S(=O)(=O)N2CCN(C(=O)c3cccc(S(=O)(=O)N4CCOCC4)c3)CC2)cc1	0	-3	1.8	-0.3
CC(C)CC#Cc1cnc2c(c1)C(=O)N([C@@H](C)CO)C[C@H](C)[C@@H](CN(C)C(=O)c1cnccn1)O2	5	2	1.3	-4.0
C[C@@H]1CN([C@@H](C)CO)C(=O)c2ccccc2-c2ccccc2CO[C@H]1CN(C)S(=O)(=O)c1ccsc1	0	1	-1.6	7.9
COc1cccc(-c2oc3c(c2C(=O)OCCN2CCCCC2)C(O)CCC3)c1 (configuration not stated)	6	-8	-1.4	1.6
COc1ccc(C(=O)NCC2CCN(C(=O)C(=O)c3cccs3)CC2)cc1	6	1	-1.4	1.1
NC(Cc1ccc(C(F)(F)F)cc1)c1csc(Nc2cnccn2)n1 (configuration not stated)	-52	-83	-17	11
COCC(=O)N1CCCCN2[C@H](CO)[C@@H](c3ccc(-c4ccccc4)cc3)[C@H]2C1	5	14	-1.2	10
C[C@@H]1CN([C@H](C)CO)C(=O)c2cc(C#C[C@@H](C)O)cnc2O[C@@H]1CN(C)C(=O)c1ccccc1	3	3	-3.6	-0.4
CCC(=O)N(C)C[C@@H]1Oc2cc(C#C[C@@H](C)O)ccc2S(=O)(=O)N([C@@H](C)CO)C[C@H]1C	3	6	-2.6	-2.9
O=C(Nc1ccc(Cl)cc1)N[C@H]1CC[C@@H](CCn2cc(C3(O)CCCC3)nn2)O[C@H]1CO	-6	-15	5.2	-14
COCC(=O)Nc1ccc2c(c1)OC[C@H](C)N(CCc1ccccc1)C[C@H](C)[C@H](OC)CN(C)C2=O	2	1	-1.1	4.1
COc1ccc(C#Cc2ccc3c(c2)O[C@H](CN(C)C(C)=O)[C@H](C)CN([C@H](C)CO)S3(=O)=O)cc1	-5	-14	6.7	-0.9
Cc1ccccc1S(=O)(=O)N1CCCCN2[C@@H](CO)[C@H](c3ccc(-c4cccc(F)c4)cc3)[C@@H]2C1	-32	-42	-6.4	1.9
CCC(=O)N1[C@@H](CO)[C@@H](c2ccccc2)C12CN(C(=O)c1ccc3c(c1)OCO3)C2	-2	-9	-3.3	0.6
COC(=O)C1=CN(c2ccc(N3CCOCC3)cc2)C(N)=C(C#N)C1c1ccc(-c2ccccc2)cc1 (configuration not stated)	-9	3	11	-8.3
C[C@@H]1CCCCO[C@H](CN(C)S(=O)(=O)c2ccc(F)cc2)[C@H](C)CN([C@H](C)CO)C(=O)c2cc(NC(=O)CCC(F)(F)F)ccc2O1	1	1	2.3	-6.7
C[C@@H]1CN([C@H](C)CO)C(=O)Cc2cc(NC(=O)Nc3ccc(C(F)(F)F)cc3)ccc2O[C@H]1CN(C)Cc1ccc(Cl)c(Cl)c1	0	6	-1.6	1.1
CCCNC(=O)N1[C@H](C#N)[C@H](c2ccccc2-c2cccc(C)c2)[C@@H]1CO	-18	-16	-11	1.8
C[C@H](CO)N1C[C@H](C)[C@@H](CN(C)Cc2ccc3c(c2)OCO3)Oc2ccc(NC(=O)Nc3cccc4ccccc34)cc2CC1=O	0	-9	5.6	7.1
COc1ccc(C(=O)Nc2ccc3c(c2)C(=O)N(C)C[C@H](OC)[C@H](C)CN(C)[C@@H](C)CO3)cc1	4	7	-0.7	-4.5
CC(C)NC(=O)N1CC2(C1)[C@H](c1ccccc1)[C@H](CO)N2Cc1cncnc1	0	4	-0.9	-2.8
O=C(C[C@@H]1CC[C@@H]2[C@H](COC[C@H](O)CN2C(=O)c2ccc(F)cc2)O1)Nc1ccc(-c2ccccc2)cc1	-1	-49	0.9	2.8
COCCNC(=O)C[C@H]1C=C[C@H](NC(=O)NC2CCCCC2)[C@H](CO)O1	0	-6	2.2	0.3
C[C@@H]1CN([C@@H](C)CO)S(=O)(=O)c2ccc(C#C[C@@H](C)O)cc2O[C@@H]1CN(C)C(=O)c1ccncc1	0	5	-1.4	-1.4
CO[C@@H]1CN(C)C(=O)c2cc(NC(=O)c3ccccc3F)ccc2OC[C@@H](C)N(C(=O)c2ccccc2F)C[C@H]1C	1	-3	5.4	0.1
C[C@H]1CN([C@@H](C)CO)C(=O)c2cc(NC(=O)c3ccncc3)ccc2O[C@H]1CN(C)C	8	5	-2.5	-1.2
COc1ccc(-c2cn(CC[C@@H]3CC[C@@H](NC(=O)c4cnccn4)[C@@H](CO)O3)nn2)cc1	-3	-2	-1.2	-0.7

Screening data as filed in PubChem.
